# WNV protease inh: blocks West Nile virus NS2B-NS3 protease activity; 65,000 compounds, 0.18% hits; z-score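 (tested at a level between 10 and 100 µM)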; P06935; AID 577; WNV NS2B-NS3 protease, fluorogenic substrate Ex360/Em465; stronger effect = lower value;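 active = z-score at -3 or under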;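 also: score is relative to mean and spread of the compound wells of a plate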
# Target sequence (P06935 1371-1501 limits assumed): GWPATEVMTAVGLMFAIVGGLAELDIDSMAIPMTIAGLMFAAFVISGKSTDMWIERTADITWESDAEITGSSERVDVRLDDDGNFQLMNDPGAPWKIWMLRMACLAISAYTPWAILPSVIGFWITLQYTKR
# Target sequence (P06935 1502-1679 limits assumed): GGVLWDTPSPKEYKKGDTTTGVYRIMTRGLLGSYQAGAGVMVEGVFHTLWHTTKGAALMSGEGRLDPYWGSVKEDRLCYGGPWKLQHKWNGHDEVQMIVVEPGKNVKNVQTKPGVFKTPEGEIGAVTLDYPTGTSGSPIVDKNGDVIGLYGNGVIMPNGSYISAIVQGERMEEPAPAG
# Hsc70 ATP site: small molecules displacing fluorescent ligand from Hsc70 – biochemical, fluorescence polarization, primary screen (AID 568); Hsc70 fluorescence polarization, probe displacement; higher % means a stronger effect; strong numbers were not always called active; one-dose displacement, % at 20 µM; IC50 in µM for titrated hits; 83,000 tested, under 10 active;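 active = displacement above 50% without optical interference and an IC50 on retest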;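 also: ATPase domain with a fluorescein-tagged ATP probe; 0% = vehicle and 100% = excess ADP; read after one hour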
# MT1-MMP promoter: MT1-MMP gene expression reporter suppression – cell-based, luciferase reporter, luminescence (AID 618); MT1-MMP promoter luciferase reporter cells, luminescence; calls from a first round at 10 µM; hits with a dose series show EC50 in µM; 87,000 compounds, 0.62% hits;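 active = over half of the reporter light lost at 10 µM or EC50 under 50 µM; inactive = the rest and hits that failed the dose series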;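 also: actives suppress MT1-MMP promoter-driven transcription so potencies describe inhibitors; HT1080 fibrosarcoma cells; overnight exposure; toxic or luciferase-blocking compounds were not removed from the actives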
# An asterisk follows results filed as active; i = inactive; x = not tested or not shown; & = joins results of further samples.
# The opening three records, to show the layout:
Structure,WNV protease inh,Hsc70 ATP site,MT1-MMP promoter
COc1cccc(/C(O)=C2\C(=O)C(=O)N(c3ccccn3)C2c2ccccc2OC)c1 (centres undefined),-0.07,-2.1%,i
Cc1ccccc1CSCC(=O)c1c(N)n(C)c(=O)n(C)c1=O,1,-1.1%,i
CCOC(=O)c1ccc(N2CSC3=C(C#N)C(c4ccc(OC)cc4OC)CC(=O)N3C2)cc1 (centres undefined),0.73,3.2%,i

# The list itself, repeating the preview:
Structure,WNV protease inh,Hsc70 ATP site,MT1-MMP promoter
COc1cccc(/C(O)=C2\C(=O)C(=O)N(c3ccccn3)C2c2ccccc2OC)c1 (centres undefined),-0.07,-2.1%,i
Cc1ccccc1CSCC(=O)c1c(N)n(C)c(=O)n(C)c1=O,1,-1.1%,i
CCOC(=O)c1ccc(N2CSC3=C(C#N)C(c4ccc(OC)cc4OC)CC(=O)N3C2)cc1 (centres undefined),0.73,3.2%,i
CCOC(=O)C1=C(N)OC2=C(C(=O)CC(C)(C)C2)C1c1ccoc1 (centres undefined),-0.05,-0.9%,i
Cc1ccnc2c(N3C(=O)C4C5C=CC(C5)C4C3=O)cccc12 (centres undefined),-0.48,-0.4%,i
CCC(=O)N1CCN(c2ccc(Cl)cc2NC(=O)Cc2ccccc2)CC1,-1.1,2.3%,i
O=S(=O)(c1cc(Cl)ccc1Br)N1CCCCC1,-0.61,0.5%,i
COc1ccc(/C(C)=N\n2cnnc2)cc1,-0.75,4.6%,i
C=C(C)C(=O)Nc1cccc(C(C)=O)c1,x,4.1%,i
Nc1ncnc2c1ncn2CCNCCc1ccccc1,-0.64,-4.7%,i
Cc1ccc(S(=O)(=O)Cn2nnnc2C(CC(C)C)N2CCN(c3ccccc3)CC2)cc1 (centres undefined),x,3.2%,i
CCOc1nc(C)ccc1-c1noc(-c2ccco2)n1,-1.6,-0.3%,i
Cn1c(N)c(C(=O)COC(=O)CCCc2c[nH]c3ccccc23)c(=O)n(C)c1=O,-0.11,-3.8%,i
O=C(CSC1=NCCS1)N1CCCCCC1,-0.35,2.6%,i
Cc1cc(NCc2ccccc2)nc(-c2ccccc2O)n1,-1.2,2.9%,i
CCOC(=O)CCCNC(=O)CN1C(=O)NC2(CCCCCC2)C1=O,0.21,-1.9%,i
O=C(NCc1ccccn1)C1CCCN(S(=O)(=O)c2ccccc2)C1 (centres undefined),0.66,5.0%,i
COc1ccc(C)cc1NC(=O)NCCC1=CCCCC1,0.37,6.9%,i
COc1cc(C2C3CN(C)CC=C3C(C#N)=C(N)C2(C#N)C#N)ccc1OC(C)C (centres undefined),1.1,22%,i
CC1=C(C#N)C(c2ccc3ncccc3c2)C(C#N)=C(C)N1,-0.76,3.7%,i
COc1ccc(/C=C2\SC(=S)N(NC(=O)c3csc4c3CCCC4)C2=O)cc1,x,-8.6%,i
Cc1cc(C)nc(/N=C2\NC(=O)CC3C(=O)NCCN23)n1 (centres undefined),-0.66,-0.2%,i
Cc1ccc(C(=O)SC2=NCCS2)cc1,x,-3.2%,i
CCOC(=O)C1=C(N)n2c(s/c(=C\c3cccs3)c2=O)=C(C(=O)OCC)C1c1cccs1 (centres undefined),-0.43,5.2%,i
C1CCc2nnc(-c3nnc4n3CCCCC4)n2CC1,-0.31,-0.2%,i
Cc1ccc(-n2c(O)c(/C=N/n3cnnc3)c3ccccc3c2=O)cc1,-0.31,-0.5%&4.5%,i
CC(=O)c1ccc(NC(=O)Cn2nc(C)cc2C)cc1,-0.14,-3.8%,i
CCC1C(=O)N=C(SCC(=O)Nc2cccc3ccccc23)NC1=O (centres undefined),1.8,-0.7%,i
CCCCC(c1nnnn1CCOC)N1CCN(C)CC1 (centres undefined),x,1.3%,i
Cc1[nH]c2ccccc2c1-c1nc2ccccc2[nH]1,2.4,-1.9%,i
Cc1ccc(-c2onc3ccc(C4(C)OCCO4)cc23)cc1,x,4.4%,i
Brc1ccc(NCc2cccc3ccccc23)nc1,x,-1.2%,i
CCOC(=O)c1coc(CNC(=O)c2c(C)oc3c2CCCC3)c1,-0.67,-3.9%,i
CS(=O)(=O)N(Cc1ccccc1)c1ccc(C(=O)N2CCN(c3cccc(Cl)c3)CC2)cc1,x,5.0%,i
O=C(O)CCNc1nc(-c2ccccc2)nc2ccccc12,0.34,-6.0%,i
O=c1[nH]c2sc3c(c2c(=O)n1Cc1ccccc1)CCC3,-0.0099,5.3%,i
O=C(c1ccco1)N1CCN(CC(O)COc2ccc3oc4ccccc4c3c2)CC1 (centres undefined),-0.78,-4.9%,i
O=C(c1cc2c(s1)CCC2)N1C(=O)c2ccccc2S1(=O)=O,2,-6.0%,i
O=C(C1CC1)N1CCN=C1SCc1ccc(Cl)cc1,2.9,-1.4%,i
Cc1ccc(S(=O)(=O)N2CCC(C(=O)NCC3CCCO3)CC2)cc1 (centres undefined),x,2.3%,i
Cc1ccccc1NC(=O)N(C(C)C)C(C)C,x,-0.2%,i
Cc1ccc(C)c(CSc2ncccc2C(=O)O)c1,x,-1.4%,i
Cc1ccc(C(C(=O)NC2CCCCC2)N2CCC3(CC2)OCCO3)cc1 (centres undefined),x,0.1%,i
CCOC(=O)C1CCCN(C(=O)c2cncc(Br)c2)C1 (centres undefined),-1.3,-3.7%,i
Cc1ccccc1NC(=O)CSc1nnc(Cc2ccccc2)o1,x,1.7%,i
C/C(CCc1oc2ccc(Cl)cc2c1-c1ccc(C)o1)=N\O,x,-1.5%,i
C=CCSc1nnc2c(n1)OC(c1cccnc1)N(C(C)=O)c1ccccc1-2 (centres undefined),-0.18,-5.3%,i
CCOC(=O)C(NC(=O)OC(C)C)(Nc1nccs1)C(F)(F)F (centres undefined),0.38,0.2%,i
CCOC(=O)CSC1=Nc2ccccc2C2=NC(CC(=O)NCc3ccc(OC)cc3)C(=O)N12 (centres undefined),-0.48,1.8%,i
Cc1ccc(S(=O)(=O)N(C)CC(=O)N2CCOCC2)cc1,-0.69,-2.7%,i
Cc1cc(C)nc(NCC(O)CNc2ccccc2C)n1 (centres undefined),x,2.5%,i
O=C(COC(=O)Cn1cnc2ccccc21)Nc1ccc2c(c1)OCCO2,-1.2,24%,i
CCn1c(CNC(=O)c2ccc(OC)c(OC)c2)nnc1SCC(=O)c1ccc(OC)cc1,-1.2,0.9%,i
Cc1sc(-n2c(C)ccc2C)c(C#N)c1C,0.47,-2.5%,i
CC(C)=CC(=O)Nc1ccc(Br)cc1,0.71,-5.1%,i
O=C(Nc1ccccc1)Nc1ccccc1C(=O)NCc1ccco1,-0.43,-2.9%,i
CCN(CC)CC(C)OC(=O)COc1ccc(OC)cc1 (centres undefined),x,-4.6%,i
O=[n+]1c2c(n([O-])c3cc(Br)ccc31)CCC2,-0.99,5.7%,i
CCCOc1ccc(/C(O)=C2/C(=O)C(=O)N(CCN(C)C)C2c2ccc(O)c(OC)c2)cc1 (centres undefined),0.25,-10%,i
Cc1nnc(NCc2ccco2)c2ccccc12,-0.59,-1.0%,i

# The results go on:
Structure,WNV protease inh,Hsc70 ATP site,MT1-MMP promoter
COc1ccc(CN2C(=O)NC3(CCCCCC3)C2=O)cc1F,0.96,4.1%,i
COc1cccc(-c2nnc(SCc3nc4ccccc4[nH]3)n2N)c1,-0.02,-3.9%,i
CSc1nc(=NC(C)=O)ss1,0.09,8.0%,i
COc1ccc2cc(CN(Cc3cccs3)Cc3nnnn3Cc3ccccc3)c(=O)[nH]c2c1,x,1.6%,i
COC(=O)c1cn(-c2ccccc2)nc1-c1cccnc1,1.4,1.2%,i
CC(C)(C)c1nc(S(=O)(=O)c2ccc(Cl)cc2)c(N2CCOCC2)o1,x,1.1%,i
Cc1nc2ccc(S(=O)(=O)NCC(=O)N3CCN(c4ccccn4)CC3)cc2s1,-0.17,-0.5%,i
O=C(CS(=O)(=O)Cc1ccccc1)Nc1ccc(Cl)cn1,x,-1.5%,i
Cc1oc(-c2cccc(Cl)c2)nc1CN1CCCC(C(=O)NCc2ccco2)C1 (centres undefined),2,-3.6%,i
Cc1c(N(C)C)nc2ccccc2c1N,-0.48,9.2%,i
Clc1ccc(-c2nnc(CSc3nnc(-c4cccs4)o3)o2)cc1,x,-1.2%,i
COc1ccc(-c2nc(C#N)c(NCCc3ccccc3)o2)cc1OC,1.8,7.2%,i
COc1ccc2ccc3c(c2c1)N=CC1(O3)N(C)c2ccccc2C1(C)C (centres undefined),x,2.0%,i
COc1cc(S(=O)(=O)N(Cc2ccco2)C2CCCC2)ccc1-n1cnnn1,-0.97,-10%,i
O=C(COc1ccccc1Cl)Nc1ccc2c(c1)OCCO2,-1.1,3.9%,i
Cc1cccc(C2CC(c3ccccc3)Nc3nc(N)nn32)c1 (centres undefined),-0.54,0.3%,i
C=CCN(C(=O)CNS(=O)(=O)c1ccccc1)C(C(=O)NCCOC)c1ccncc1 (centres undefined),-1.3,1.4%,i
COc1ccccc1NC(=O)c1ccccc1NS(=O)(=O)N1CCCC1,-2,-8.7%,i
CC12CN(C(=O)c3ccccc3)C3(C#N)CC1CCC23C (centres undefined),-0.09,-2.5%,i
CCCCn1c(SCc2cc(=O)[nH]c3ccccc23)nc2c1c(=O)n(C)c(=O)n2C,-0.86,0.3%,i
CCc1nc(SCC(=O)NCc2ccco2)c2c(=O)n(C)c(=O)n(C)c2n1,0.76,4.2%,i
COc1ccc(OC)c(S(=O)(=O)NCc2cn3c(C)csc3n2)c1,-0.03,2.6%,i
Cc1ccc2[nH]c3c(NCCN4CCOCC4)ncnc3c2c1,-1.2,-0.5%,i
COc1ccnc(N=CNOCc2ccc(F)cc2Cl)c1C#N,x,8.3%,i
Cn1nc(-c2ccc(OCC(=O)Nc3cccnc3)cc2)c2ccccc2c1=O,-0.97,7.8%,i
CCOC(=O)C1CCN(Cc2nc3ccccc3c(=O)n2-c2ccc(OCC)cc2)CC1,0.44,2.9%,i
Cc1ccc(C(=O)CSc2nnc(-c3ccco3)n2CC2CCCO2)cc1 (centres undefined),0.15,-5.7%,i
CCN(CC)S(=O)(=O)c1cccc(-c2nnc(SC(C)C(=O)NCCC3=CCCCC3)o2)c1 (centres undefined),-0.6,-0.1%,i
CN1C=CC(=C2C(=O)c3ccccc3C2=O)C=C1,-1.1,3.5%,i
O=C(NCC1COc2ccccc2O1)c1ccc(NC(=O)C2CCCO2)cc1 (centres undefined),-0.63,-1.0%,i
COc1cccc(-c2noc(C3CCCN(C(=O)Cc4ccccc4)C3)n2)c1 (centres undefined),-0.09,0.9%,i
COCCCNC(=O)CN(c1cccc(Cl)c1)S(C)(=O)=O,0.81,6.1%,i
CCNC(=O)COn1c(SCC(=O)NCC)nc2ccccc2c1=O,0.24,-0.3%,i
Cc1nc2ncnn2c(C)c1CCC(=O)NCCC1=CCCCC1,-0.92,4.7%,i
CC(C)c1nc(-c2c(N)n(C)c(=O)n(C)c2=O)sc1C(=O)C(C)(C)C,-0.02,-2.0%,i
COc1ccc(C2(C(=O)NCC3CCCO3)CCOCC2)cc1 (centres undefined),-0.16,7.4%,i
CCCCCCC(=O)NCC(=O)OCC(=O)c1ccccc1,0.7,2.7%,i
CC(=O)N1c2c(cc(Br)cc2S(=O)(=O)NCC2COc3ccccc3O2)CC1C (centres undefined),-0.78,-7.4%,i
COC(=O)c1ccccc1NC(=O)C12CCC(C)(C(=O)O1)C2(C)C (centres undefined),-1.2,-2.7%,i
Cc1cc(C(=O)NC2CCCC2)on1,-0.63,-2.0%,i
CCCN(c1ccc(OCC)cc1)c1ncnc2nc[nH]c12,0.68,-3.1%,i
COC(=O)c1cccc(Nc2nc3ccccc3nc2C)c1,0.84,-14%,i
O=C(CSc1nnnn1C1CCCCC1)NCc1ccc2c(c1)OCO2,-0.75,-10%,i
CCCCCn1c(SCCC(C)C)nc2c1c(=O)[nH]c(=O)n2C,-1.6,7.0%,i
COc1cc2c(cc1OC)C1(CCCC1)C(N)=C2C#N,0.29,-1.1%,i
CCOC1Cc2ccccc2N(C(N)=O)c2ccccc21 (centres undefined),x,3.9%,i
Clc1ccc(-n2ncc3c(NCc4cccs4)ncnc32)cc1,0.21,-3.5%,i
CCCn1c(SCC(N)=O)nnc1-c1ccco1,-0.01,-7.8%,i
CCOC(=O)c1c(N)sn(-c2ccccc2)c1=S,-0.37,-5.6%,i

# A stretch taken from the entries so far:
Structure,WNV protease inh,Hsc70 ATP site,MT1-MMP promoter
CCCCCn1c(SCCC(C)C)nc2c1c(=O)[nH]c(=O)n2C,-1.6,7.0%,i
COc1cc2c(cc1OC)C1(CCCC1)C(N)=C2C#N,0.29,-1.1%,i
CCOC1Cc2ccccc2N(C(N)=O)c2ccccc21 (centres undefined),x,3.9%,i
Clc1ccc(-n2ncc3c(NCc4cccs4)ncnc32)cc1,0.21,-3.5%,i
CCCn1c(SCC(N)=O)nnc1-c1ccco1,-0.01,-7.8%,i
CCOC(=O)c1c(N)sn(-c2ccccc2)c1=S,-0.37,-5.6%,i

# High-throughput results deposited in PubChem BioAssay by several laboratories.
